S aureus helic: S. aureus DNA helicase inhibition | AID 485395 | inhibition, %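 (tested at about 80 µM)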 | purified S. aureus helicase, fluorescence unwinding assay; about half of the hits fall short of the stated cut | hit rate 0.05% among 120,000;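 active means both duplicates at 50% or more, or one of them with a favoured structure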;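 further: 0% = mean of negative control wells and 100% = mean of positive control wells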
MgrA DNA FP: alters Staphylococcus aureus MgrA binding to DNA | AID 602314 | hit rate 0.13% among 84,000 | fluorescence polarization | inhibition, %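 (about 10 µg/mL by stock and volumes)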;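 active means above 50% in either of two replicates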;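 further: 0% = protein plus DNA without compound and 100% = DNA alone without protein; higher means less MgrA bound to DNA so lower polarization; one replicate is shown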
* hit, by the source's call; . = no result given; & = joins results of further samples. Some of the compounds tested. The share of hits here may be higher or lower than overall.

SMILES	S aureus helic	MgrA DNA FP
O=C(Nc1ccc(F)cc1)C1CCCO1 (stereo unspecified)	9	-4.0
CSc1nsc(SCC(=O)N(c2ccccc2)c2ccccc2)n1	4	0.7
CC1(C)CC(=O)c2c(nc3cc(Cl)ccc3c2N)C1	0	-1.2
CC(C)(CO)Nc1ccc(C(F)(F)F)cc1[N+](=O)[O-]	.	-2.5
O=S(=O)(c1cccc(C(F)(F)F)c1)c1cnc2ccccc2n1	.	2.1
Cc1cc(S(=O)(=O)N2CCOCC2)ccc1N=Cc1c(C)[nH]n(-c2ccc(Cl)cc2)c1=O	-6	0.0
Cn1nccc1NC(=O)c1cccc2c1OC(C)(C)C2	.	-1.1
C=CC[N+]1(C)Cc2ccccc2C1	1	-1.4
Cc1ccc(C)[n+](CNC(=O)c2ccc(Cl)cc2Cl)c1	-19	-0.7
COC(=O)c1cc(=O)n(C2CCCCC2)c(=NC2CCCCC2)s1	-4	0.5
C=CCN1C(=O)CS/C1=N/c1nccs1	5	3.0
CC(C)(C)c1cc(C(C)(C)C)n(-c2ccc(Br)cc2)n1	-21	.
CNCc1ccccc1N1CCOCC1	-4	.
Cc1nn(CC(C)C)c(Cl)c1C(=O)NCC1COc2ccccc2O1 (stereo unspecified)	4	.
CC1(C)CC(=O)C2=C(C1)Oc1ccc(Br)cc1C2	-10	.
Cc1cc(C(=O)CSc2c(F)c(F)c(C(=O)O)c(F)c2F)ccc1Cl	.	1.8
COC(=O)C(C)(C)S(=O)(=O)c1ccc(C(F)(F)F)cn1	.	-1.6
Fc1ccc(Cc2nnc(-c3ccc(F)cc3)o2)cc1	9	.
COC(=O)c1c(OCC(=O)N(Cc2ccccc2)C(C)(C)C)cc(=O)n2c1CCCCC2	-2	.
N#CC1=C(N)Oc2c(oc(CO)cc2=O)C12C(=O)Nc1ccccc12 (stereo unspecified)	-33	.
CCOC(=O)c1sc(N/C=C(\C#N)c2nc3cc(Cl)ccc3o2)c(C#N)c1C	-91	22
O=C(Nc1ccc2[nH]ccc2c1)c1cccs1	.	-2.4
O=C1C2C(C(=O)N1Cc1ccc(F)cc1)C1C=CC2C12CC2 (stereo unspecified)	-8	1.3
Cc1ccc(C2=NS(=O)(=O)N(C)C(C(=O)N(C)c3ccccc3)=C2)cc1	-4	4.0
COC(=O)c1sc(SC)c(S(=O)(=O)c2ccc(Cl)cc2)c1N	.	-2.4

The closing 7 entries of the part above open the next one:
SMILES	S aureus helic	MgrA DNA FP
COC(=O)c1c(OCC(=O)N(Cc2ccccc2)C(C)(C)C)cc(=O)n2c1CCCCC2	-2	.
N#CC1=C(N)Oc2c(oc(CO)cc2=O)C12C(=O)Nc1ccccc12 (stereo unspecified)	-33	.
CCOC(=O)c1sc(N/C=C(\C#N)c2nc3cc(Cl)ccc3o2)c(C#N)c1C	-91	22
O=C(Nc1ccc2[nH]ccc2c1)c1cccs1	.	-2.4
O=C1C2C(C(=O)N1Cc1ccc(F)cc1)C1C=CC2C12CC2 (stereo unspecified)	-8	1.3
Cc1ccc(C2=NS(=O)(=O)N(C)C(C(=O)N(C)c3ccccc3)=C2)cc1	-4	4.0
COC(=O)c1sc(SC)c(S(=O)(=O)c2ccc(Cl)cc2)c1N	.	-2.4
COCCCn1c(-c2ccc(F)cc2)nc2c(c(=O)c3ccccc3n2C)c1=O	-1	.
O=C(CCNS(=O)(=O)c1ccc2c(c1)OCCO2)NC1CCCc2ccccc21 (stereo unspecified)	32	.
O=C(c1ccc2ncsc2c1)N1CCOCC1	.	-1.5
CC(C)(Oc1ccc(Cl)cc1)C(=O)Nc1ccc2nccnc2c1	.	-0.5
COc1cccc(C(=O)ON2C(=O)c3ccccc3C2=O)c1	32	.
COc1cccc(C(=O)Nc2ccccc2C#N)c1OC	11	1.2
Cn1c(=NC(=O)CN2C(=O)C3CC=CCC3C2=O)sc2ccccc21 (stereo unspecified)	-3	.
CC1CCCC(C)N1C(=O)COC(=O)c1c2c(nc3ccccc13)CCC2 (stereo unspecified)	32	5.5
COc1cccc(Cn2c(=O)n(CCc3ccccc3)c(=O)c3cccnc32)c1	-10	.
Cc1noc(C)c1CSc1ccccc1C(=O)OCc1nnc(-c2ccccc2)o1	21	.
Nc1nnnn1/N=C\c1ccc(O)cc1	0	6.3
Cc1c(N2C(=O)C(=O)/C(=C(/O)c3ccc(Br)cc3)C2c2cccnc2)c(=O)n(-c2ccccc2)n1C (stereo unspecified)	13	.
O=C(CN1CCNCC1)Nc1ccc(Cl)cc1Cl	7	-3.5
COc1ccc(C(=O)Nc2nc3ccccc3[nH]2)cc1OC	10	.
Cc1ccc2c(c1)sc(=NC(=O)C1=COCCO1)n2C	8	.
CCOC(=O)/C=C1\NC(C)(C)Cc2cc(OC)c(O)cc21	5	-2.5
Cc1cc(COC(=O)Nc2ccc(Cl)cc2)no1	.	-1.6
O=C(Cc1ccccc1)Oc1cccc2cccnc12	21	.
FC(F)(F)c1cc(-c2ccc3c(c2)OCO3)n[nH]1	.	-2.7
O=C(Nc1cccc(Cl)c1)c1nn2c(c1Br)NC(c1cccs1)CC2C(F)(F)F (stereo unspecified)	.	0.4
COc1cc(C)c2c(c1)CCC1C2CCC2(C)C(O)CCC12 (stereo unspecified)	.	-1.7
COc1ccc(CN(Cc2ccc(OC)cc2)C(=O)Nc2ccc(Cl)cc2)cc1	.	3.3
CC(C)N1CCN(Cc2ccc3ccccc3c2)CC1	9	-2.8
CN(Cc1cccs1)Cc1nc2scc(-c3ccccc3)c2c(=O)n1CC#N	-14	.
CC(C)(CO)NC(=O)COc1ccc(Cl)cc1Cl	12	.
The results go on:
SMILES	S aureus helic	MgrA DNA FP
Nc1ccc(C(=O)c2ccccc2C(=O)O)cc1Cl	5	0.0
COc1ccccc1C(=O)Nc1sccc1C(N)=O	3	.
O=C(CCSc1nc(-c2ccco2)cc(C(F)(F)F)n1)N1CCCc2ccccc21	9	-0.4
CCOC(=O)c1c(N)sc2c1CCC2	-14	-0.4
Cc1ccc(C2C3=C(CCCC3=O)NC3=C2C(=O)c2ccccc23)cc1 (stereo unspecified)	11	.
CCn1ccc(C(=O)Nc2ccc(C)c(C)c2)n1	23	.
CC(C)(CC(=O)O)CC(=O)Nc1ccc2c(c1)C(=O)OC2	.	-1.8
Cc1cc(NC(=O)CC(C)(C)CC(=O)O)n(C)n1	23	.
Cc1cc(C(=O)N/N=C/C(C)(C)C)nn1-c1ccc(C(C)C)cc1	-2	.
CCOc1ccc(S(=O)(=O)NCCC(=O)NC2CCC(C)CC2)cc1 (stereo unspecified)	11	.
COc1ccc(/C=C/C(=O)OCC(=O)Nc2cccc(C(F)(F)F)c2)cc1	-9	-0.6
O=c1nc(Nc2ccccc2)oc2ccccc12	.	-1.6
Cc1nc(-c2ccccn2)nc(SCC(=O)N2CCOCC2)c1Cl	.	-0.4
CCc1cc2c(C)cc(=O)oc2cc1OCC(=O)NC1CCCCC1	14	-1.1
O=C(Cc1ccc(Cl)cc1)OCC(=O)c1cc2ccccc2o1	-3	-0.9
COc1ccccc1CC(=O)NC(C)C1CCCO1 (stereo unspecified)	10	-3.4
Cc1cc(=O)n2[nH]c(C34CC5CC(CC(C5)C3)C4)nc2n1	31	.
O=C(NC1CCC(O)CC1)c1ccc(S(=O)(=O)N2CCCc3ccccc32)cc1 (stereo unspecified)	-8	.
CC1(O)c2ccccc2-c2ccccc21	.	-0.3
Cc1c(CC(=O)N2CCCC2)c(=O)oc2cc3occ(C(C)(C)C)c3cc12	-15	.
Cc1ccc2cc(CN(Cc3cccs3)Cc3nnnn3C(C)(C)C)c3nnnn3c2c1	3	-1.1
Cc1nc(SCC(=O)Nc2nccs2)[nH]c(=O)c1C	10	.
CSC(=Nc1ccccc1F)N1CCCCC1	.	-2.3
CC(=O)N(O)CC(=O)Nc1ccccc1C(=O)c1ccccc1	.	-0.8
CCOC(=O)/C=C1\SCC(=O)N1Cc1ccc(C)cc1	-5	.
Continued:
SMILES	S aureus helic	MgrA DNA FP
CC(O)CNC(=O)COc1ccccc1 (stereo unspecified)	7	.
Cc1cc(F)ccc1S(=O)(=O)N1CCCCC1CCNC(=O)NC1CCCCC1 (stereo unspecified)	9	.
COc1ccc(S(=O)(=O)NCc2cccnc2)cc1-c1nnc2c3ccccc3c(C)nn12	-10	.
C=C1SC(Nc2ccccc2OC)=NC1(C)C	.	-0.3
O=S(=O)(Nc1ccccn1)c1ccc(Cl)cc1	16	5.9
O=C(Nc1nnc(C2CC2)s1)c1ccc2c(c1)S(=O)(=O)c1ccccc1C2=O	14	.
O=c1c2ccccc2nc2sc(Nc3c(F)cccc3F)nn12	3	.
Cc1nn(C)c(C)c1S(=O)(=O)N1CCN(c2ccccc2)CC1	15	1.6
Cn1c(=O)c2c(nc(CN3CCOCC3)n2CC(=O)C(C)(C)C)n(C)c1=O	8	.
Cc1ccc(S(=O)(=O)N2CC=C(C(=O)NC3CCCC3)CC2)cc1	-19	0.6
COC(=O)c1ccc(N=C2SC(C(=O)Nc3cccc(Cl)c3)CC(=O)N2C)cc1 (stereo unspecified)	.	-1.2
CCOC(=O)c1cc(-c2ccc(C)cc2)n(CC(=O)NCc2ccccn2)c1C	12	.
O=C1c2ccccc2N(S(=O)(=O)c2cccs2)C(=O)c2ccccc2N1S(=O)(=O)c1cccs1	-8	.
Cc1cc(C(=O)NCc2ccc3c(c2)OCO3)c(C)o1	.	-1.1
O=C(Nc1ccc2c(c1)C(=O)N(C1CCCCC1)C2=O)c1ccc(Br)o1	2	1.7
CCCCn1c(CNC(=O)c2ccccc2)nc2ccccc21	-10	.
Cc1nc(N)[nH]c(=O)c1Cc1c(F)cccc1Cl	.	-0.5
Nc1sc2c(c1C(=O)Nc1cccc(Cl)c1)CCCCC2	-8	-1.0
Cc1nc(C)c(C(=O)N/N=C/c2ccc(N(C)C)cc2)s1	3	.
O=C(O)C1=Cc2ccccc2OC1	-6	.
CCOC(=O)c1cc(-c2ccc(OC)cc2)nn1CCC#N	-6	.
COc1ccc(OCCCC(=O)Nc2ccc(S(=O)(=O)Nc3nccs3)cc2)cc1	8	4.3
CCc1nnc(NC(=O)/C=C/c2ccccc2)s1	-15	.
OC(COCC1CC=CCC1)CN(Cc1ccccc1)Cc1ccccc1 (stereo unspecified)	10	-1.4
O=C1c2ccccc2S(=O)(=O)c2cc(-c3nn[nH]n3)ccc21	4	-0.9
Additional structures follow:
SMILES	S aureus helic	MgrA DNA FP
O=C(NCCc1c[nH]c2ccccc12)C1CCCCC1	0	-0.9
CC1CC(C)(C)NC(=S)N1CCC(=O)NCCN1CCCc2ccccc21 (stereo unspecified)	-24	.
Cc1cc(NC(=O)c2noc3c2CCc2ccccc2-3)n(-c2ccccc2)n1	-26	.
Cc1cc2nc(CSCc3ccco3)cc(=O)n2o1	-11	.
O=C(NC=Nc1cccnc1)c1cccc(COCC(F)(F)F)c1	12	0.0
O=S(=O)(c1ccc(Sc2nnnn2C2CC2)nc1)N1CCCCC1	-17	.
COCC(=O)Nc1cccc(-c2ccc(S(C)(=O)=O)nn2)c1	4	.
COc1ccc(Br)c(-c2nnc(-c3ccccc3NS(=O)(=O)c3ccc(C)cc3)o2)c1	.	-0.2
C#CC(CC)(CC)NC(=O)Nc1ccccc1	25	.
O=C1CC(Sc2nnc(-c3cccc(S(=O)(=O)N4CCOCC4)c3)o2)C(=O)N1c1ccc(F)cc1 (stereo unspecified)	-14	.
O=C(CS(=O)(=O)c1ccccc1Cl)N1CCOCC1	.	1.2
c1ccc(Oc2cccc(CSc3nc4ccccc4o3)c2)cc1	7	3.6
O=C(Cc1cn2ccsc2n1)N/N=C1\CC(c2ccccc2)Oc2ccccc21 (stereo unspecified)	2	.
O=C(CCn1cccc1)N1CCc2ccccc21	17	3.6
COc1ccc2c(c1)sc1ncc(C(=O)NCC(C)c3ccccc3)c(=O)n12 (stereo unspecified)	-11	1.8
O=C(O)CSc1ccccc1Cl	19	.
Cc1ccc(C)n1-c1ccc(-c2nc3ccccc3[nH]2)cc1	-13	.
CCOC(=O)c1cc(C)n(Cc2ccccc2)c1C	12	.
Cc1ccc(C(C)C)c(OCCN)c1	14	-1.5
N#CC(C(=O)N1CCCC1)C(=S)Nc1ccccc1Cl (stereo unspecified)	.	-0.5
Cc1ccc(CNC(=O)c2cccc(Cn3cc(Cl)cn3)c2)cc1	5	.
Cc1cc(C(=O)O)ccc1-n1c(C)cc(C=Nc2ccc(N3CCOCC3)cc2)c1C	14	-1.9
O=C(COC(=O)c1cccc(O)c1O)c1ccc(Cl)cc1	.	-1.4
C=CCn1c(SC(C)C#N)nc2cc(Cl)ccc2c1=O (stereo unspecified)	0	.
CC(=O)c1cc2ccccc2oc1=O	.	-0.3&5.2
The list goes on:
SMILES	S aureus helic	MgrA DNA FP
Cc1cc(C)c2c(c1)-c1cc(C)nn1C(c1cccs1)N2 (stereo unspecified)	-13	.
O=C1c2ccccc2CN1c1ccccc1	6	0.2
O=C1/C(=C/c2cccnc2)CCCC/C1=C\c1cccnc1	-16	.
CCN(CCCNc1ncnc2nc[nH]c12)c1cccc(C)c1	0	.
Cc1cc(C)n2cc(CN3CCc4ccccc4C3)nc2n1	-3	.
CCc1nn2c(=O)cc(N3CCN(c4cc(C)nc5ccccc45)CC3)nc2s1	-11	.
O=C(O)c1cc(-c2cccs2)nn1-c1cccc(Cl)c1	9	.
CCOC(=O)c1ccc(N2C(=O)C3Sc4[nH]c(=O)sc4C4(CCCCC4)C3C2=O)cc1 (stereo unspecified)	5	.
O=C(CCC(=O)c1ccc(Cl)cc1)OC1CCCCC1=O (stereo unspecified)	-4	.
C#Cc1cccc(N2C(=O)CC(CC=C)C2=O)c1 (stereo unspecified)	-21	.

Reprinted at random: 7 records from the list, in no set order.
SMILES	S aureus helic	MgrA DNA FP
COc1ccc(S(=O)(=O)NCc2cccnc2)cc1-c1nnc2c3ccccc3c(C)nn12	-10	.
COc1ccccc1CC(=O)NC(C)C1CCCO1 (stereo unspecified)	10	-3.4
O=C1C2C(C(=O)N1Cc1ccc(F)cc1)C1C=CC2C12CC2 (stereo unspecified)	-8	1.3
O=S(=O)(c1cccc(C(F)(F)F)c1)c1cnc2ccccc2n1	.	2.1
C#CC(CC)(CC)NC(=O)Nc1ccccc1	25	.
CCCCn1c(CNC(=O)c2ccccc2)nc2ccccc21	-10	.
COC(=O)c1sc(SC)c(S(=O)(=O)c2ccc(Cl)cc2)c1N	.	-2.4

Assay outcomes (PubChem BioAssay)
